FGF22 binding: FGF22 (human) thermal shift binding. Q9HCT0. recombinant FGF22 thermal shift, SYPRO orange fluorescence; percent of sucrose octasulfate shift, DMSO zero. calls only at 9.99 µM. hit rate 1.5% among 340,000. AID 651658;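 active = melting point raised past a set limit in the mean and every replicate; three in four hits are not shown here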
Target sequence (Q9HCT0 whole entry, looked up): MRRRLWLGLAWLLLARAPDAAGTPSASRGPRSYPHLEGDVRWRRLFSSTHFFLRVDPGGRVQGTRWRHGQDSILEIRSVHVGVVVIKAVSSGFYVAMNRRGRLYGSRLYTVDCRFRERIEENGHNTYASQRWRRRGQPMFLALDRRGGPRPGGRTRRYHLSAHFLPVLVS
MLL AF4-AF9 inh: blocks AF4 peptide binding to human AF9 | P42568 | AlphaScreen, biotin-AF4 peptide binding to FLAG-AF9 | inhibition, % at 10 µM | hit rate 0.47% among 350,000 | AID 651704;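 active = every replicate reaching a set inhibition limit, whatever the replicate mean, cut at about 25% in these data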;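 note: 0% = plate neutral control median and 100% = total signal loss; the record names both 10 and 1 µM as test concentration; the first replicate is given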
Target sequence (P42568 whole entry, looked up): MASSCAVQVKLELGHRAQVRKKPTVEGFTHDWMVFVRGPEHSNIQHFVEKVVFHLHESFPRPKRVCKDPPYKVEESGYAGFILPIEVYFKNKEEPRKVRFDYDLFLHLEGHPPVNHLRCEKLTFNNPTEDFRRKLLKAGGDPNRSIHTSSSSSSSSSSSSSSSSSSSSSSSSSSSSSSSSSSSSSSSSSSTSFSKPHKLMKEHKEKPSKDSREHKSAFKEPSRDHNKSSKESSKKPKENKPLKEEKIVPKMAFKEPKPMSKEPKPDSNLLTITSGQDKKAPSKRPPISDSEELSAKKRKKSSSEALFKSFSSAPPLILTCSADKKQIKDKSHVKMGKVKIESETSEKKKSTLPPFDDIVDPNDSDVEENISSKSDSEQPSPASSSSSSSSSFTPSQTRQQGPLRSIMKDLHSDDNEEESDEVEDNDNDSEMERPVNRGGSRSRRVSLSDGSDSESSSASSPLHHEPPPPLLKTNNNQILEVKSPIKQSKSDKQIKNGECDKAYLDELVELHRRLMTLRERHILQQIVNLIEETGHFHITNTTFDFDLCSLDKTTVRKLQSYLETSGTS
Numbers without * were called inactive; i = inactive. The list is partial (hit frequency here may not be typical).

SMILES	FGF22 binding	MLL AF4-AF9 inh
C[C@H]1CN([C@@H](C)CO)S(=O)(=O)c2ccc(C#CCC3CCCC3)cc2O[C@H]1CN(C)C(=O)c1ccccn1	i	7.7
C[C@@H]1CN([C@@H](C)CO)C(=O)CCCn2cc(nn2)CO[C@H]1CN(C)Cc1ccccc1C(=O)O	i	-0.4
Cc1noc(C)c1NC(=O)Nc1cccc2c1O[C@H](CN(C)Cc1ccc(C(F)(F)F)cc1)[C@H](C)CN([C@H](C)CO)C2=O	i	1.0
COc1cccc(-c2cnc3c(c2)C(=O)N([C@H](C)CO)C[C@@H](C)[C@@H](CN(C)Cc2ccc(F)cc2)O3)c1	i	0.1
COc1ccc(NC(=O)N(C)C[C@@H]2Oc3ccc(NC(=O)c4ccncc4)cc3CC(=O)N([C@H](C)CO)C[C@H]2C)cc1	i	-1.1
COc1ccc2c3c([nH]c2c1)[C@@H](CO)N(Cc1nccs1)CC31CN(C(=O)C2CC2)C1	i	2.2
CO[C@@H]1CN(C)C(=O)c2ccc(NC(C)=O)cc2OC[C@H](C)N(C(=O)CC2CC2)C[C@@H]1C	i	-3.3
CN(C)C(=O)c1cccc(-c2ccc([C@H]3[C@H](C#N)N(C(=O)C4CCC4)[C@H]3CO)cc2)c1	i	-1.3
CO[C@H]1CN(C)C(=O)c2cc(NC(=O)Nc3c(C)noc3C)ccc2OC[C@@H](C)N(CCC(F)(F)F)C[C@@H]1C	i	2.4
O=C(Cc1ccccn1)N1CC2(C1)[C@@H](c1ccccc1)[C@@H](CO)N2C(=O)c1ccccc1	i	0.4
C[C@@H]1CCCCO[C@@H](CN(C)Cc2ccc3c(c2)OCO3)[C@@H](C)CN([C@@H](C)CO)C(=O)c2cc(NC(=O)Nc3ccc(F)cc3)ccc2O1	i	9.6
CCCN1C[C@@H](C)[C@@H](OC)CN(C)C(=O)c2ccc(NC(=O)c3ccccc3)cc2OC[C@H]1C	i	-3.2
CO[C@@H]1CN(C)C(=O)c2cc(NC(=O)C3CC3)ccc2OC[C@@H](C)N(C(=O)c2ccccc2)C[C@H]1C	i	-0.5
COC(=O)c1cc2c(c3c4cc(OC)ccc4n(S(=O)(=O)c4ccc(OC)cc4)c13)C(=O)N(Cc1ccc(N(C)C)cc1)C2	i	0.4
CO[C@@H]1CN(C)C(=O)c2ccc(NS(=O)(=O)CC(F)(F)F)cc2OC[C@H](C)N(C)C[C@@H]1C	i	-0.8
C[C@H]1CN([C@@H](C)CO)C(=O)c2cccc(NC(=O)NC3CCCCC3)c2O[C@@H]1CN(C)S(C)(=O)=O	i	0.0
C[C@@H]1CCCCO[C@H](CN(C)C(=O)C2CCCCC2)[C@@H](C)CN([C@@H](C)CO)C(=O)c2cc(NC(=O)NC3CCCCC3)ccc2O1	i	-2.4
C[C@H](CO)N1C[C@H](C)[C@@H](CN(C)Cc2ccc(C(F)(F)F)cc2)Oc2ccc(NC(=O)Nc3cccc4ccccc34)cc2CC1=O	i	1.0
C[C@H](CO)N1C[C@H](C)[C@H](CN(C)Cc2cccc3c2OCCCO3)OCc2cn(nn2)CCCC1=O	i	-0.8
C[C@@H]1CN([C@H](C)CO)C(=O)Cc2cc(NC(=O)Cn3cnnn3)ccc2O[C@H]1CN(C)C(=O)Nc1ccccc1	i	-1.7
Cc1ccc(S(=O)(=O)N(C)C[C@@H]2OCCCC[C@H](C)Oc3ccc(NC(=O)CCCN(C)C)cc3C(=O)N([C@H](C)CO)C[C@@H]2C)cc1	i	4.8
Cc1noc(C)c1NC(=O)N(C)C[C@H]1OCCCC[C@H](C)Oc2ccc(NC(=O)Cc3ccccc3)cc2C(=O)N([C@@H](C)CO)C[C@@H]1C	i	-3.8
C[C@H](CO)N1C[C@H](C)[C@@H](CN(C)Cc2ccc(-c3ccccc3)cc2)Oc2ccc(NC(=O)c3ccncc3)cc2C1=O	i	4.4
COc1ccc2c3c([nH]c2c1)[C@H](CO)N(C(=O)c1ccccn1)CC31CCN(C(=O)C2CCC2)CC1	i	-1.7
COc1ccc(S(=O)(=O)Nc2ccc3c(c2)C(=O)N([C@H](C)CO)C[C@@H](C)[C@H](CN(C)C(=O)Nc2ccc4c(c2)OCO4)OCCCC[C@@H](C)O3)cc1	i	3.1
C[C@H](CO)N1C[C@H](C)[C@@H](CN(C)Cc2ccc(C(F)(F)F)cc2)Oc2ccc(NS(=O)(=O)c3ccccc3)cc2CC1=O	i	-6.0
O=C(C[C@@H]1C=C[C@H](NC(=O)Nc2ccc3c(c2)OCO3)[C@H](CO)O1)NCc1ccc2c(c1)OCO2	i	2.1
CO[C@H]1CN(C)C(=O)c2ccc(NC(=O)c3nc4ccccc4s3)cc2OC[C@H](C)N(Cc2cncnc2)C[C@H]1C	i	8.1
COc1ccc(NC(=O)Nc2ccc3c(c2)CC(=O)N([C@@H](C)CO)C[C@H](C)[C@H](CN(C)Cc2ccncc2)O3)cc1	i	0.0
CC(C)NC(=O)Nc1ccc2c(c1)C(=O)N([C@@H](C)CO)C[C@H](C)[C@H](CN(C)C(=O)NC(C)C)O2	i	-1.8
C[C@H](CO)N1C[C@H](C)[C@H](CN(C)S(=O)(=O)c2ccc(Cl)cc2)Oc2ccc(NS(=O)(=O)c3cn(C)cn3)cc2CC1=O	i	0.0
C[C@H]1CN([C@@H](C)CO)C(=O)c2cc(NC(=O)CCCN(C)C)ccc2O[C@@H]1CN(C)S(=O)(=O)c1ccccc1	i	-7.1
C[C@@H]1CN([C@H](C)CO)C(=O)Cc2cc(NS(=O)(=O)c3ccc(Cl)cc3)ccc2O[C@@H]1CN(C)S(=O)(=O)c1ccccc1	i	-0.7
COc1cccc(S(=O)(=O)N[C@H]2CC[C@H](CCNC(=O)Nc3cc(F)ccc3F)O[C@@H]2CO)c1	i	2.9
O=C(Nc1ccccc1F)N[C@@H]1CC[C@@H](CCNS(=O)(=O)c2ccc(Cl)cc2)O[C@H]1CO	i	2.3
COc1ccccc1NC(=O)N[C@H]1CC[C@@H](CCNS(=O)(=O)c2ccc(F)cc2)O[C@@H]1CO	i	1.4
CC(C)NC(=O)N(C)C[C@@H]1Oc2c(NC(=O)C3CC3)cccc2C(=O)N([C@H](C)CO)C[C@H]1C	i	-0.2
COc1ccc(CN(C)C[C@@H]2OCCCC[C@@H](C)Oc3ccc(NC(=O)c4ccncc4)cc3C(=O)N([C@@H](C)CO)C[C@H]2C)cc1	i	0.1
CC(C)NC(=O)N(C)C[C@@H]1Oc2ccc(NC(=O)CCC(F)(F)F)cc2C(=O)N([C@H](C)CO)C[C@@H]1C	i	-3.8
C[C@H]1CN([C@@H](C)CO)C(=O)c2cc(NC(=O)CCN3CCOCC3)ccc2O[C@H]1CN(C)S(C)(=O)=O	i	-4.3
COc1ccccc1NC(=O)N(C)C[C@@H]1Oc2ncc(C#CCC(C)C)cc2C(=O)N([C@H](C)CO)C[C@H]1C	i	0.6
COc1ccc2c3c(n(C)c2c1)[C@H](CO)N(CC1CC1)CC31CN(C(=O)Nc2ccc(F)cc2F)C1	i	5.9
C[C@H](CO)N1C[C@H](C)[C@H](CN(C)S(=O)(=O)c2cccs2)Oc2ccc(NS(C)(=O)=O)cc2CC1=O	i	-0.4
C[C@H](CO)N1C[C@H](C)[C@@H](CN(C)Cc2cccnc2)Oc2cc(-c3ccncc3)ccc2S1(=O)=O	i	-3.2
CCCC(=O)Nc1ccc2c(c1)C(=O)N(C)C[C@H](OC)[C@@H](C)CN(C(=O)C1CCCC1)[C@H](C)CO2	i	2.3
CC=Cc1ccc2n(c1=O)C[C@H]1[C@H](CO)[C@@H](C(=O)NCC)N(C(=O)C3CCOCC3)[C@@H]21 (mixture of isomers)	i	-4.2
C[C@@H]1CN([C@H](C)CO)C(=O)c2cc(C#CCN(C)C)cnc2O[C@H]1CN(C)C(=O)c1ccc(F)cc1	i	-0.5
C[C@@H]1CN([C@H](C)CO)C(=O)c2cc(NC(=O)Nc3ccc(F)cc3)ccc2O[C@@H]1CN(C)Cc1ccc(C(=O)Nc2ccccc2N)cc1	i	0.3
CC(C)C#Cc1ccc2c(c1)O[C@@H](CN(C)C(=O)CN(C)C)[C@H](C)CN([C@H](C)CO)S2(=O)=O	i	2.4
COCC(=O)N(C)C[C@@H]1Oc2ncc(-c3ccccc3C)cc2C(=O)N([C@@H](C)CO)C[C@H]1C	i	-1.7
COc1ccc(CN(C)C[C@@H]2OCCCC[C@H](C)Oc3ccc(NC(=O)Nc4ccc(C(F)(F)F)cc4)cc3C(=O)N([C@H](C)CO)C[C@H]2C)cc1	i	14.8
COc1ccccc1NC(=O)Nc1ccc2c(c1)C(=O)N(C)C[C@H](OC)[C@@H](C)CN[C@@H](C)CO2	i	1.6
C[C@@H]1CN([C@@H](C)CO)C(=O)c2cc(-c3ccc(C#N)cc3)cnc2O[C@H]1CN(C)CC1CCOCC1	i	-2.8
COCC(=O)N(C)C[C@H]1Oc2cc(C#CCC3CCCC3)ccc2S(=O)(=O)N([C@@H](C)CO)C[C@@H]1C	i	4.2
C[C@@H]1CN([C@@H](C)CO)C(=O)Cc2cc(NC(=O)Cc3cn(C)c4ccccc34)ccc2O[C@@H]1CN(C)S(=O)(=O)c1cn(C)cn1	i	1.0
CC(C)NC(=O)N(C)C[C@@H]1Oc2c(NC(=O)c3nc4ccccc4s3)cccc2C(=O)N([C@H](C)CO)C[C@@H]1C	i	-1.7
CCCNC(=O)N1C[C@@H](C)[C@H](OC)CN(C)C(=O)c2cc(NC(=O)CC)ccc2OC[C@@H]1C	i	-1.9
COc1ccc(CN(C)C[C@@H]2Oc3c(NS(=O)(=O)c4cccs4)cccc3C(=O)N([C@@H](C)CO)C[C@@H]2C)cc1	i	0.6
COCC#Cc1cnc2c(c1)C(=O)N([C@@H](C)CO)C[C@H](C)[C@H](CN(C)C(=O)Cc1ccncc1)O2	i	-1.0
O=C(C[C@H]1CC[C@H]2[C@@H](COC[C@@H](O)CN2C(=O)c2ccncc2)O1)NC1Cc2ccccc2C1	i	-0.9

Record cards, from the list above.
Shown for C[C@H]1CN([C@@H](C)CO)C(=O)c2cccc(NC(=O)NC3CCCCC3)c2O[C@@H]1CN(C)S(C)(=O)=O → FGF22 binding = i; MLL AF4-AF9 inh = 0.0
Shown for COc1ccc2c3c([nH]c2c1)[C@H](CO)N(C(=O)c1ccccn1)CC31CCN(C(=O)C2CCC2)CC1 → FGF22 binding = i; MLL AF4-AF9 inh = -1.7
Shown for C[C@H](CO)N1C[C@H](C)[C@@H](CN(C)Cc2cccnc2)Oc2cc(-c3ccncc3)ccc2S1(=O)=O → FGF22 binding = i; MLL AF4-AF9 inh = -3.2

New compounds follow.
SMILES	FGF22 binding	MLL AF4-AF9 inh
CCCNC(=O)C[C@@H]1CC[C@H]2[C@@H](COC[C@@H](O)CN2Cc2ccc(Cl)c(Cl)c2)O1	i	1.1
CN(C)C(=O)c1cccc(-c2ccccc2[C@H]2[C@H](C#N)N(C(=O)C3CCCCC3)[C@H]2CO)c1	i	-0.7
C[C@H]1CN([C@@H](C)CO)S(=O)(=O)c2ccc(C#CC(C)(C)O)cc2O[C@H]1CN(C)Cc1ccc(-c2ccccc2)cc1	i	5.6
O=C(C[C@@H]1CC[C@@H]2[C@H](COC[C@@H](O)CN2S(=O)(=O)c2ccc(F)cc2)O1)NCc1ccc(Cl)c(Cl)c1	i	6.9
CCCNC(=O)[C@@H]1[C@@H](CO)[C@@H]2Cn3c(ccc(C4=CCCC4)c3=O)[C@H]1N2C(C)=O	i	-1.4
CCNC(=O)C[C@H]1CC[C@@H]2[C@H](COc3ccc(NC(=O)Nc4c(C)noc4C)cc3C(=O)N2C)O1	i	0.4
C[C@H](O)C#Cc1ccc2c(c1)O[C@@H](CN(C)C(=O)C1CCCCC1)[C@H](C)CN([C@H](C)CO)S2(=O)=O	i	-0.8
COc1ccc(NC(=O)N(C)C[C@@H]2OCCCC[C@@H](C)Oc3ccc(NC(=O)Nc4c(C)noc4C)cc3C(=O)N([C@@H](C)CO)C[C@H]2C)cc1	i	-1.5
O=C(Nc1ccc(F)cc1)N1CC(=O)N2[C@H](CO)[C@@H](c3ccc(C4=CCCC4)cc3)[C@H]2C1	i	-0.5
C[C@@H](NC(=O)[C@@H]1[C@@H](CO)[C@@H]2Cn3c(ccc(C4=CCCCC4)c3=O)[C@@H]2N1C)c1ccccc1	i	3.7
CN(C)CC(=O)N1CCCCN2[C@H](C1)[C@@H](c1ccc(-c3cccnc3)cc1)[C@@H]2CO	i	-3.8
CC(C)NC(=O)N(C)C[C@@H]1Oc2ccc(NC(=O)Cc3cn(C)c4ccccc34)cc2C(=O)N([C@H](C)CO)C[C@H]1C	i	-0.2
C[C@@H]1CN([C@@H](C)CO)C(=O)c2cccc(NS(=O)(=O)c3ccc(F)cc3)c2O[C@H]1CN(C)C	i	-1.0
C[C@@H]1CCCCO[C@@H](CN(C)CC2CCCCC2)[C@@H](C)CN([C@H](C)CO)C(=O)c2cc(NC(=O)Nc3ccc(C(F)(F)F)cc3)ccc2O1	i	-1.2
C[C@@H]1CN([C@@H](C)CO)S(=O)(=O)c2ccc(-c3ccncc3)cc2O[C@H]1CN(C)C(=O)c1cccc(F)c1	i	2.0

Quoted from the listing:
`CN(C)CC(=O)N1CCCCN2[C@H](C1)[C@@H](c1ccc(-c3cccnc3)cc1)[C@@H]2CO` @ MLL AF4-AF9 inh = -3.8
`C[C@@H]1CN([C@@H](C)CO)C(=O)c2cccc(NS(=O)(=O)c3ccc(F)cc3)c2O[C@H]1CN(C)C` @ MLL AF4-AF9 inh = -1.0

Compound activity as filed in PubChem.
